Screening data (PubChem BioAssay)
MT1-MMP act inh: MT1-MMP (human) activation inhibition; P50281; GFP/RFP ratio change, % at 20 µM; 0.061% of 360,000 active; HT1080 RFP-PRO-GFP cells, GFP/RFP ratio fluorescence, overnight; percent of plate control window, DMSO zero; AID 651647;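 active = GFP/RFP ratio change of at least 30% with cell ATP level not reduced by more than half and red fluorescence within 50% of control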; also: strong numbers were not always called active
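Test system: HT1080 cells expressing an RFP-PRO-GFP fluorescent reporter construct / Compound dosing: single-point 20 µM compound, 1% DMSO / Schedule: cells overnight before dosing, compound overnight, 37 °C, 5% CO2 / Evaluation: GFP/RFP fluorescence ratio / Control set: DMSO and RFP-L50D-GFP cell wells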
Env fusion inh: HIV envelope-mediated fusion inhibition; inhibition, % at 12.3 µM; HeLa-JRFL Env/CEM21 cell fusion, luciferase; 1.1% of 360,000 active;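 active = mean replicate inhibition score of at least 50 and every replicate individually at or above 50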;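 also: 0% = plate neutral controls and 100% = maraviroc near 300 nM; one replicate is shown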
UUG fidelity: yeast start codon fidelity modulation. 0.13% of 350,000 active. activity score, % at 18.7 µM. S. cerevisiae UUG-firefly luciferase reporter, luminescence/redox ratio. AID 602363;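 active = replicate mean at a twofold rise or more, about +100% in these data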;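 also: firefly luciferase made from a UUG start codon reports start codon fidelity; reporter light over untreated wells divided by growth signal over untreated wells; some hits fall short of that in this replicate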
MT1-MMP act inh RFP: second read-out of MT1-MMP act inh, no call of its own (marks repeat the call); RFP signal change, %; measured here: RFP expression control read;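 0 = vehicle wells; hits needed this value within 50% of zero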
Active calls of the source: *; / = not tested or not shown. These rows are one share of the data (hit frequency here may not be typical).

SMILES	MT1-MMP act inh	MT1-MMP act inh RFP	Env fusion inh	UUG fidelity
O=C1NC(=O)C2(CCOc3ccc(F)cc32)N1 (stereo not given)	/	/	9	/
COc1cc(C=O)ccc1O	0	2	/	-39
